# A1 inhib – inducers of caspase activity in MEF A1-2A-BIM cells, primary screen, A1 inhibitor project, cell-based, CaspaseGlo luminescence. caspase-Glo luminescence, 3 h; percent of clofoctol signal, DMSO as zero. caspase activation, % (concentration not given with the values). 0.51% of 21,000 active. AID 2241, 2010;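 active means most replicate scores above 10, or exactly half above 10 with mean activity above 10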;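 further: effector caspase 3 and 7 activity cleaving a DEVD luciferin substrate; 50 nL library stock added to about 30 µL; numbers are from one replicate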
# BJeLR viability – BJeLR cell viability loss, primary screen, luminescence, CellTiterGlo ATP; BJeLR fibroblasts viability, 48 h; HRASV12, hTERT and SV40 LT/ST transformed; viability loss activity score, % (no concentration beside the values); 0.64% of 30,000 active; AID 2275, 2010; in the data active means viability loss activity score above about 50%; about a fifth of its hits are not listed in these tables;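 further: higher score means fewer live cells and less ATP luminescence; stock transfer was 50 or 100 nL into about 30 µL; 0% = vehicle wells and 100% = a reference killing control; one replicate is shown; the record names a cut of 85%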
# The depositor's hits bear a star; x = not tested or not shown. Only part of the results is shown (hit frequency here may not be typical).
canonical_smiles	A1 inhib	BJeLR viability
N=C1/C(=C/c2cccn2-c2ccc(Br)cc2)C(=O)N=C2SC=CN12	x	-0.2
C[C@H]1CN([C@@H](C)CO)C(=O)c2cccc(N(C)C)c2O[C@@H]1CN(C)Cc1ccncc1	x	-3.0
COc1ccccc1NC(=O)N1CCCN(Cc2ccc(F)cc2)CC1	x	1.1
C[C@@H]1CN([C@H](C)CO)C(=O)c2cc(NS(=O)(=O)c3cccs3)ccc2O[C@@H]1CN(C)S(=O)(=O)c1ccccc1	0.4	6.7
C[C@@H]1CN([C@@H](C)CO)C(=O)c2cc(NC(=O)C3CCCCC3)ccc2O[C@H]1CN(C)Cc1ccccc1	-0.5	-3.5
C=CCN1C(=O)/C(=C/c2cc(C)n(CCOC)c2C)C(=O)NC1=S	-0.3	1.3
C[C@H]1CN([C@@H](C)CO)C(=O)c2cc(NS(C)(=O)=O)ccc2O[C@H]1CN(C)Cc1ccc(C(=O)O)cc1	-0.2	3.2
O=S(=O)(c1ccc(N2CCOCC2)nc1)N(Cc1ccccn1)Cc1ccccn1	-0.1	-1.1
CC(C)(C)C(=O)Nc1nnc(SCc2ccc(Cl)cc2Cl)s1	-1.1	4.3
C[C@@H]1CN([C@H](C)CO)C(=O)c2cccc(NC(=O)c3ccncc3)c2O[C@@H]1CN(C)CC1CC1	x	-1.6
CC1CC(NC(=O)CCn2c(=O)oc3ccccc32)CC(C)(C)C1 (stereo not given)	x	-2.6
COc1cc(O)cc2c1C(=O)OC(C)C2 (stereo not given)	0.4	5.4
C[C@@H]1CN([C@H](C)CO)C(=O)c2cc(NS(C)(=O)=O)ccc2O[C@@H]1CN(C)Cc1ccc(Cl)c(Cl)c1	-0.1	4.1
Cc1cc(C)cc(NC(=S)NC2CCCCC2)c1	-0.3	-4.4
O=C(O)CC1(c2ccccc2)C(=O)c2ccccc2C1=O	x	1.9
Cc1noc(C)c1NC(=O)N(C)C[C@@H]1Oc2c(NS(C)(=O)=O)cccc2C(=O)N([C@@H](C)CO)C[C@H]1C	x	-1.4
C[C@@H]1CN([C@H](C)CO)C(=O)c2cc(N(C)C)ccc2O[C@H]1CN(C)Cc1ccc(-c2ccccc2)cc1	-0.5	0.1
C[C@@H]1CN([C@H](C)CO)C(=O)c2cccc(NC(=O)Nc3ccc(C(F)(F)F)cc3)c2O[C@H]1CN(C)S(=O)(=O)c1ccc(Cl)cc1	x	-0.8
Cc1ccc(S(=O)(=O)Nc2ccc3c(c2)C(=O)N([C@@H](C)CO)C[C@@H](C)[C@@H](CN(C)Cc2ccccc2)O3)cc1	-0.4	-1.4
Cc1ccc(NS(=O)(=O)c2ccccc2)c(NS(=O)(=O)c2ccccc2)c1	0.7	0.4
O=C(Cc1csc(Nc2nc(=S)[nH]c3ccccc23)n1)NCc1cccc(Cl)c1	0.1	0.1
C[C@H](CO)N1C[C@H](C)[C@H](CN(C)Cc2ccc(Cl)c(Cl)c2)Oc2c(NS(=O)(=O)c3cccs3)cccc2C1=O	x	0.3
C[C@H]1CN([C@@H](C)CO)C(=O)c2cc(NC(=O)Cc3cn(C)c4ccccc34)ccc2O[C@H]1CN(C)S(C)(=O)=O	-0.1	5.2
CCCNC(=O)CSc1nc(-c2cccs2)cc(C(F)(F)F)n1	-0.4	-0.1
C[C@@H]1CN([C@H](C)CO)C(=O)c2cc(NC(=O)c3ccncc3)ccc2O[C@H]1CN(C)Cc1ccc(Cl)c(Cl)c1	-0.3	-0.3
C[C@@H]1CN([C@@H](C)CO)C(=O)c2cccc(NS(=O)(=O)c3ccccc3)c2O[C@H]1CN(C)S(=O)(=O)c1ccc(Cl)cc1	x	6.9
O=C(c1cc2ccccn2n1)N1CCN(c2ccc(Cl)nn2)CC1	x	-9.9
Cc1oc(S(=O)(=O)N2CCCC2)cc1-c1nc(-c2ccc(F)cc2)no1	x	-7.1
COC(=O)c1cc(NC(=O)c2cccc(Cl)c2)cc(C(=O)OC)c1	0.0	-2.3
O=C(CCCN1C(=O)S/C(=C\C=C\c2ccccc2)C1=O)Nc1ccc(C(=O)O)cc1	-1.1	1.8
NCCCCCCNS(=O)(=O)c1cccc2c(Cl)cccc12	0.6	4.2
CCC(C(=O)NC1CCCC1)n1c2ccccc2c2nc(=O)cc(C)n21 (stereo not given)	-0.6	-5.4
C[C@@H]1CN([C@H](C)CO)C(=O)c2cccc(NC(=O)C3CCCCC3)c2O[C@@H]1CN(C)Cc1ccc(C(F)(F)F)cc1	x	-3.1
CSc1nc2ccc(NC(=O)CCc3ccccc3)cc2s1	-0.5	-0.8
O=C(NCC(O)c1ccccc1)Nc1ccccc1 (stereo not given)	-0.2	-2.0
C[C@@H]1CN([C@@H](C)CO)C(=O)c2cc(NC(=O)CCCCCC(=O)Nc3ccccc3N)ccc2O[C@H]1CN(C)S(=O)(=O)c1ccc(F)cc1	x	-7.1
COc1cc2c(cc1O)C(Cc1ccc(O)cc1)N(C)CC2 (stereo not given)	0.4	3.5
O=C(Nc1ccccc1)c1c[nH]c(=O)n(-c2ccccc2)c1=O	1.2	4.0
S=C1NCN(Cc2ccccc2)CN1CC1CCCO1 (stereo not given)	0.2	-3.9
COc1ccc(CN(C)C[C@H]2Oc3ccc(NC(=O)Cc4cn(C)c5ccccc45)cc3C(=O)N([C@H](C)CO)C[C@H]2C)cc1	0.3	-3.3
COc1ccc(NC(=O)N(C)C[C@H]2Oc3c(NC(=O)NC4CCCCC4)cccc3C(=O)N([C@@H](C)CO)C[C@H]2C)cc1	x	-9.2
COc1cc(-c2cc(=O)c3c(O)c(OC)c(OC)c(OC)c3o2)cc(OC)c1OC	0.4	-2.5
COc1ccc(S(=O)(=O)Nc2cc(C)cc(C)c2)cc1	0.1	9.1
CCn1cc(C(=O)NCc2cccnc2)c2cc(OC)c(OC)cc2c1=O	x	-0.4
COc1ccc(NC(=O)Nc2ccc3c(c2)C(=O)N([C@H](C)CO)C[C@H](C)[C@H](CN(C)Cc2ccc(Cl)c(Cl)c2)O3)cc1	-1.2	4.7
COc1ccc(NC(=O)Nc2ccc3c(c2)C(=O)N([C@@H](C)CO)C[C@H](C)[C@@H](CN(C)Cc2ccncc2)O3)cc1	0.2	-3.4
CC(CC(O)C1OC1(C)C)[C@@H]1CCC2(C)C3=CCC4C(C)(C)C(=O)CCC4(C)C3CC[C@@]12C (stereo not given in full)	-0.5	1.1
C[C@@H]1CN([C@@H](C)CO)C(=O)c2cc(NC(=O)C3CCCCC3)ccc2O[C@@H]1CN(C)C(=O)Nc1ccc2c(c1)OCO2	0.2	-1.3

# Five compounds already listed, sorted by molar mass, lowest first:
canonical_smiles	A1 inhib	BJeLR viability
COc1ccc(S(=O)(=O)Nc2cc(C)cc(C)c2)cc1	0.1	9.1
COc1cc2c(cc1O)C(Cc1ccc(O)cc1)N(C)CC2 (stereo not given)	0.4	3.5
COc1cc(-c2cc(=O)c3c(O)c(OC)c(OC)c(OC)c3o2)cc(OC)c1OC	0.4	-2.5
CC(CC(O)C1OC1(C)C)[C@@H]1CCC2(C)C3=CCC4C(C)(C)C(=O)CCC4(C)C3CC[C@@]12C (stereo not given in full)	-0.5	1.1
C[C@@H]1CN([C@@H](C)CO)C(=O)c2cc(NC(=O)C3CCCCC3)ccc2O[C@@H]1CN(C)C(=O)Nc1ccc2c(c1)OCO2	0.2	-1.3

# Going on with the list.
canonical_smiles	A1 inhib	BJeLR viability
O=C(NCCc1ccc(Cl)cc1)c1cc(=O)[nH]c2ccc(Br)cc12	0.2	4.4
COc1ccccc1CNC(=O)c1cn(C2CCCC2)c(=O)c2c1c1ccccc1n2C	x	2.9
COC(=O)/C(=C1\OC(=O)C(c2ccccc2)C1=O)c1ccccc1 (stereo not given)	-5.0	3.9
Cc1nc2c3ccccc3nc(SCc3cc(F)cc4c3OCOC4)n2n1	-0.8	0.5
O=C(c1sc2ccccc2c1Cl)N1CCc2ccccc21	-0.6	7.0
O=S(=O)(c1ccc(Br)s1)N1CCCC1	x	4.6
c1csc(CCNc2ncnc3sc4c(c23)CCC4)c1	-1.6	8.0
COc1ccccc1NC(=O)N1CCN(C(c2ccccc2)c2ccccc2)CC1	x	8.3
C[C@H]1CN([C@@H](C)CO)C(=O)c2cc(NS(C)(=O)=O)ccc2O[C@@H]1CN(C)S(=O)(=O)c1ccc(F)cc1	-0.1	0.5
CCC(C)NC(=O)C1CCCN(S(=O)(=O)c2ccc(C)cc2)C1 (stereo not given)	0.6	4.2
CC(C)NC(=O)N(C)C[C@H]1Oc2c(NS(=O)(=O)c3ccc(F)cc3)cccc2C(=O)N([C@H](C)CO)C[C@H]1C	x	-2.7
CC1CCN(CCCNC(=O)C2(S(=O)(=O)c3ccc(Cl)cc3)CC2)CC1	x	-5.0
COc1ccc(S(=O)(=O)Nc2ccc3c(c2)C(=O)N([C@@H](C)CO)C[C@@H](C)[C@@H](CN(C)C(=O)Nc2ccc(C(F)(F)F)cc2)O3)cc1	0.1	3.1
C[C@H]1CN([C@@H](C)CO)C(=O)c2cc(NC(=O)Nc3cccc4ccccc34)ccc2O[C@H]1CN(C)Cc1ccc(C(=O)Nc2ccccc2N)cc1	x	8.5
C[C@@H]1CN([C@@H](C)CO)C(=O)c2cc(NC(=O)Nc3ccccc3)ccc2O[C@H]1CN(C)Cc1ccc(C(=O)O)cc1	0.4	2.4
CC(=O)Nc1ccccc1OCC(O)CS(=O)(=O)c1ccc(C(F)(F)F)cn1 (stereo not given)	0.3	0.8
C[C@H](CO)N1C[C@H](C)[C@H](CN(C)C(=O)Nc2ccccc2)Oc2c(NC(=O)c3cnccn3)cccc2C1=O	x	-3.5
CCN(CC)C(=S)NC(=S)c1ccc(C)cc1	-0.5	2.2
COc1ccc(-c2cc(-c3ccccc3)nc(SCC(=O)N3CCCCC3)c2C#N)cc1	-1.0	-6.0
COc1ccc(CN(C)C[C@@H]2Oc3c(NC(=O)c4nc5ccccc5s4)cccc3C(=O)N([C@H](C)CO)C[C@H]2C)cc1	x	-2.3
CC(C)c1ccc(NC(=O)C2CCC(CNS(=O)(=O)c3cccs3)CC2)cc1 (stereo not given)	x	2.4
CC(C)(C)C(=O)NC(c1ccccc1)c1c(O)ccc2ccccc12 (stereo not given)	0.5	-0.6
C[C@H]1CN([C@@H](C)CO)C(=O)c2cccc(NS(=O)(=O)c3ccc(Cl)cc3)c2O[C@@H]1CN(C)S(=O)(=O)c1ccc(F)cc1	x	0.1
Cc1ccc(C(=O)C2COC(=O)C2)cc1 (stereo not given)	1.2	0.0
COc1ccc(NC(=O)Nc2cccc3c2O[C@@H](CN(C)Cc2ccc(Oc4ccccc4)cc2)[C@H](C)CN([C@H](C)CO)C3=O)cc1	x	1.2
O=C(C1CC1)N1CCc2cc(Br)cc(S(=O)(=O)NCCc3ccccc3Cl)c21	x	0.9
O=C(Nc1ccccc1)Nc1ccc(NC(=O)c2ccccc2O)cc1	-3.0	2.7
C=C(C(=O)O[C@H]1C/C=C(/C)C[C@H](O)[C@H]2[C@H](C)C(=O)O[C@@H]2/C=C\1C)[C@@H]1CCC(=C)[C@@H]2C[C@H](O[C@@H]3O[C@H](COC(=O)CC(=O)O)[C@@H](O)[C@H](O)[C@H]3O)C(=C)[C@@H]2C1	-0.7	-2.5
C[C@H](CO)N1C[C@H](C)[C@H](CN(C)C(=O)Nc2ccccc2)Oc2ccc(NC(=O)C3CCCCC3)cc2C1=O	1.3	4.1
C[C@H](CO)N1C[C@H](C)[C@H](CN(C)Cc2ccccc2)Oc2c(NC(=O)c3ccc(-c4nccs4)cc3)cccc2C1=O	x	-1.1
C[C@H]1CN([C@@H](C)CO)C(=O)c2cccc(NC(=O)Nc3cccc4ccccc34)c2O[C@@H]1CN(C)S(=O)(=O)c1ccccc1	x	-2.5
C[C@@H]1CN([C@@H](C)CO)C(=O)c2cccc(NS(C)(=O)=O)c2O[C@H]1CN(C)C	x	-5.2
O=C(NC(=S)Nc1ccccc1Cl)c1cnn2c(C(F)(F)F)cc(C(F)(F)F)nc12	0.6	3.0
Cc1ccc(NC(=O)N2CCC(N(C)C(C)C)CC2)cc1C	0.0	-5.0
C[C@H]1CN([C@@H](C)CO)C(=O)c2cc(NC(=O)c3ccncc3)ccc2O[C@H]1CN(C)C(=O)Nc1ccc(F)cc1	0.6	3.4
C[C@@H]1OC(OC[C@H]2O[C@@H](Oc3cc(O)c4c(=O)cc(-c5ccc(O)c(O)c5)oc4c3)[C@H](O)[C@@H](O)[C@@H]2O)[C@H](O)[C@H](O)[C@H]1O (stereo not given in full)	0.8	1.3
COc1ccc(NC(=O)N(C)C[C@@H]2Oc3c(NC(=O)Nc4ccc(F)cc4)cccc3C(=O)N([C@H](C)CO)C[C@H]2C)cc1	x	-6.0
Cc1noc(C)c1NC(=O)Nc1cccc2c1O[C@H](CN(C)S(=O)(=O)c1ccc(Cl)cc1)[C@H](C)CN([C@@H](C)CO)C2=O	x	-4.1
CSc1ncnc2nc[nH]c12	-0.9	0.9
C[C@@H]1CN([C@H](C)CO)C(=O)c2cccc(NC(=O)Nc3ccc(C(F)(F)F)cc3)c2O[C@@H]1CN(C)Cc1ccc(C(F)(F)F)cc1	x	-4.5
CCCn1c2ccccc2c2nnc(SCCCC(=O)c3ccc4c(c3)OCCO4)nc21	-0.2	-5.8

# Source: PubChem
